Compound activity (PubChem BioAssay)
PKD1 kinase inh: blocks activity of human protein kinase D1 | inhibition, %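 (about 10 µM by stock and volumes)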 | actives 0.056% (n = 200,000) | PKD1 kinase fluorescence polarization assay | AID 797 | Q15139;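 active means inhibition of 50% or more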;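 further: controls were vehicle for no effect and a reference inhibitor for full effect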
Target sequence (Q15139 whole entry, looked up): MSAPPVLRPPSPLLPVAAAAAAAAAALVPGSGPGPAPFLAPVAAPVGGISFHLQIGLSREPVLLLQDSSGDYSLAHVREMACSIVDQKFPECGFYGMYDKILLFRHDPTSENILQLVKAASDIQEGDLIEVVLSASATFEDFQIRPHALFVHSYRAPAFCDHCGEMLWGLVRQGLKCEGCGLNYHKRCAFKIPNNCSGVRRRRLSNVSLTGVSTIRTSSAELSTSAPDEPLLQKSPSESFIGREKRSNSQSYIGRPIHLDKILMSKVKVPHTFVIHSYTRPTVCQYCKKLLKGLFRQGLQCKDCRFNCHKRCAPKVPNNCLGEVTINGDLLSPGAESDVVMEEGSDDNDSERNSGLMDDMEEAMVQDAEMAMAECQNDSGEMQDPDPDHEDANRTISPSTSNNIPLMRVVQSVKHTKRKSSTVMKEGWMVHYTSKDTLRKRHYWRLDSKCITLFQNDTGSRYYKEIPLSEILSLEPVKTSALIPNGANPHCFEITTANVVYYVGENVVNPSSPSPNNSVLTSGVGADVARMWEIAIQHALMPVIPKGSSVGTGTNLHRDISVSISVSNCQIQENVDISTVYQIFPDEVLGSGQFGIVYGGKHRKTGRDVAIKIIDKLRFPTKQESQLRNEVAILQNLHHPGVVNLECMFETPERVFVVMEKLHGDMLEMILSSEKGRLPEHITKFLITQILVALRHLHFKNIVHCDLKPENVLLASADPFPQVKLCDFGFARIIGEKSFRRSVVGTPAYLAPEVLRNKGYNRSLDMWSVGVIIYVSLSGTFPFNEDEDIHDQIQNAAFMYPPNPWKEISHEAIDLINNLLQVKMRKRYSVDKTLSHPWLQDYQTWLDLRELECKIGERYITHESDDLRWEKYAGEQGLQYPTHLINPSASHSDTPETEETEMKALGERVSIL
INS promoter inh: TRM-6 insulin promoter activity inhibition; TRM-6 cells (human fetal islet line), insulin promoter-eGFP reporter, imaging; reporter expression induced with tamoxifen; inhibition, % at 2 µM; actives 0.9% (n = 130,000); AID 1273;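 active means inhibition above the mean plus 3 SD, with well images judged a real hit on visual review, cut at about 60% in these data, passing the limit was not always enough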
HSV replic up: increases HSV replication in cells | HSV replication augmentation in cells, fold increase | maximum fold increase | actives 0.005% (n = 220,000);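 active means peak rise of 1.5-fold or more in the series; tested in PC3 cells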;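 further: first round at 10 µM; read as green reporter fluorescence; hits show the peak of a series up to 25 µM; 1 = signal of infected wells without compound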
RGS16-Gao: regulators of human RGS16-Galphao interaction. binding response (% of control), % at 10 µM. O15492+P09471. AID 1441. bead-based flow cytometry RGS16-Galphao binding, fluorescence; actives lie on both sides. actives 0.38% (n = 220,000);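 active means below 25% or above 175%, edge rows of some plates excepted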;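 further: Galphao activated by GDP with aluminum fluoride before binding; 100% = wells without compound and 0% = beads without RGS; some results beyond the cut were filed as inactive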
GALR2 ag: agonists of human galanin receptor 2 (GALR2) | O43603 | GALR2-expressing cells, agonist activation read-out | activation, %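 (tested at 5 µM)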 | actives 0.48% (n = 140,000) | AID 803;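 active means above mean plus 3 SD of all compounds, about 5% in these data, not always enough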;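 further: 0% = vehicle buffer wells and 100% = reference agonist at full effect; tested in CHO reporter cells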
INS promoter inh cell count: also measured in INS promoter inh; calls as there; normalized cell count, %; measured here: cell count, toxicity; reference of the scale not given here;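 cells exposed to compound for 48 h; stained nuclei by imaging scaled within each plate; lower means fewer cells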
HSV replic up primary fold: further read-out of HSV replic up, marked with its call; fold increase; compound at 10 µM; measured here: primary screen fold increase 10 uM; tested in PC3 cells;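 GFP signal in the first replicate; 1 = infected wells without compound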
Starred values were filed as active, the others as inactive; i = inactive; nt = no result given.

The opening 11 compounds, to show the layout:
molecule,PKD1 kinase inh,INS promoter inh,INS promoter inh cell count,HSV replic up,HSV replic up primary fold,RGS16-Gao,GALR2 ag
CC(C)CNS(=O)(=O)c1ccc(OCC(=O)NCC2CCCO2)c(Cl)c1 (stereo not given),-4,-112,49,i,0.9,99,-1.6
CCCCC(=O)Nc1ccc(NC(=O)c2ccccc2OC)cn1,0,0,96,i,0.96,98,-1.3
Cc1ccc2[nH]c(=O)c(CN(Cc3cccnc3)C(=O)c3ccncc3)cc2c1,13,nt,nt,i,0.92,79,-0.1
CC(=O)Nc1ccccc1NC(=O)C/C(C)=N/NC(=O)C(=O)Nc1cccc(Cl)c1C,-1,17,180,i,0.99,107,nt
Cn1ccnc1SCC(=O)NC1CC1,-4,-66,114,i,1.1,95,-2.3
Cc1cccc(CCNc2nc3ccccc3n3nnnc23)c1,7,21,121,i,1,99,-0.8
O=C(c1c[nH]c(C(=O)N2CCN(c3ccccc3F)CC2)c1)c1cccc(Cl)c1Cl,7,nt,nt,i,0.74,90,nt
COC(=O)/C(=C\Nc1ccc(Cl)cc1Cl)NC(=O)c1ccc(OC)cc1,nt,nt,nt,i,0.79,106,nt
NS(=O)(=O)c1ccc(CNC(=O)C23CC4CC(CC(C4)C2)C3)cc1,2,30,109,i,0.91,105,-1.6
Cc1cc2ncn(C3CC(=O)N(Cc4ccc(N5CCCC5=O)cc4)C3=O)c2cc1C (stereo not given),5,nt,nt,i,0.91,99,-0.9
CCCCCn1c(N)c(C#N)c2nc3ccccc3nc21,11,29,141,i,1,106,7.9*

The list itself, previewed entries included:
molecule,PKD1 kinase inh,INS promoter inh,INS promoter inh cell count,HSV replic up,HSV replic up primary fold,RGS16-Gao,GALR2 ag
CC(C)CNS(=O)(=O)c1ccc(OCC(=O)NCC2CCCO2)c(Cl)c1 (stereo not given),-4,-112,49,i,0.9,99,-1.6
CCCCC(=O)Nc1ccc(NC(=O)c2ccccc2OC)cn1,0,0,96,i,0.96,98,-1.3
Cc1ccc2[nH]c(=O)c(CN(Cc3cccnc3)C(=O)c3ccncc3)cc2c1,13,nt,nt,i,0.92,79,-0.1
CC(=O)Nc1ccccc1NC(=O)C/C(C)=N/NC(=O)C(=O)Nc1cccc(Cl)c1C,-1,17,180,i,0.99,107,nt
Cn1ccnc1SCC(=O)NC1CC1,-4,-66,114,i,1.1,95,-2.3
Cc1cccc(CCNc2nc3ccccc3n3nnnc23)c1,7,21,121,i,1,99,-0.8
O=C(c1c[nH]c(C(=O)N2CCN(c3ccccc3F)CC2)c1)c1cccc(Cl)c1Cl,7,nt,nt,i,0.74,90,nt
COC(=O)/C(=C\Nc1ccc(Cl)cc1Cl)NC(=O)c1ccc(OC)cc1,nt,nt,nt,i,0.79,106,nt
NS(=O)(=O)c1ccc(CNC(=O)C23CC4CC(CC(C4)C2)C3)cc1,2,30,109,i,0.91,105,-1.6
Cc1cc2ncn(C3CC(=O)N(Cc4ccc(N5CCCC5=O)cc4)C3=O)c2cc1C (stereo not given),5,nt,nt,i,0.91,99,-0.9
CCCCCn1c(N)c(C#N)c2nc3ccccc3nc21,11,29,141,i,1,106,7.9*
COC(=O)c1sc(NC(=O)c2oc3ccccc3c2C)nc1C,-5,57,126,i,1.1,73,0.1
O=C1CCCCC1C(=O)c1ccccc1 (stereo not given),nt,nt,nt,i,1.3,92,nt
COc1cccc(-c2nc(CS(=O)(=O)CC(=O)NCCCOC(C)C)c(C)o2)c1,-3,-69,93,i,0.85,98,-1.0
CC(C(=O)NCc1ccc2c(c1)OCO2)N1c2cccc3cccc(c23)S1(=O)=O (stereo not given),6,-26,17,i,0.9,101,-2.0
O=C(NC(=S)N1CCCCC1)c1cccs1,-1,13,91,i,0.98,109,-1.7
Cc1cc(C)n(CCCNCC(O)c2ccccc2)n1 (stereo not given),-4,38,69,i,1,102,-0.8
CCOC(CNC(=O)c1ccc(CNC(=O)c2ccc(OC)c(OC)c2)cc1)OCC,-6,40,148,i,0.86,100,nt
COC(=O)c1ccc(N2CCOCC2)c(NC(=O)Nc2cccc(OC)c2)c1,-10,nt,nt,i,0.92,100,-2.0
COc1nc(C)nc(NC(=O)NS(=O)(=O)c2ccc(C)cc2)n1,0,41,89,i,0.99,104,-1.4
Cc1nn(C(C)C(=O)O)c2ccccc12 (stereo not given),-13,nt,nt,i,0.91,97,-1.4
COc1ccc(NC(=O)c2[nH]c(C)c(C(C)=O)c2C)cc1,-7,nt,nt,i,0.91,101,nt
NC(=NC(=O)c1ccccc1)N1CCOCC1,0,nt,nt,i,1.1,104,-3.1
CC(=O)N1CCC(=NNc2nc3ccccc3[nH]2)CC1,4,nt,nt,i,0.85,103,nt
CCC(c1nnnn1CC1CCCO1)N(CCCO)Cc1cc2cccc(C)c2[nH]c1=O (stereo not given),5,-22,83,i,0.92,101,-0.5
CCOP(=O)(OCC)C(NC(=O)Nc1cccc(Cl)c1)c1ccccc1 (stereo not given),0,0,90,i,0.96,106,-1.9
O=C(COc1ccc(/C=N/NS(=O)(=O)c2ccccc2)cc1)NCCc1ccccc1,-3,0,125,i,0.9,96,-2.3
O=c1/c(=C\c2ccc(O)cc2)sc2nc(-c3ccccc3)c(-c3ccccc3)n12,nt,nt,nt,i,1.2,98,nt
CCC(=O)NNc1nc2c(F)cccc2s1,0,21,123,i,1,102,nt
CCCCc1nc2ccccc2c(NC(=O)CN2CCCC2)c1CCC,8,-254,100,i,1.3,119,-2.8
Cc1cccc(N/N=C(\C#N)S(=O)(=O)C(C)(C)C)c1,-11,91*,84*,i,0.95,104,nt
CC(=O)Nc1cccc(-n2nnc(SCC(=O)N(C)c3ccccc3)n2)c1,nt,nt,nt,i,1.2,102,nt
CCOC(=O)CC1COc2ccccc2N1C(=O)c1ccc(C)cc1 (stereo not given),6,19,112,i,0.86,104,-1.5
Cc1nnc(N/N=C\c2ccc(-c3ccccc3[N+](=O)[O-])o2)n1N,-2,29,158,i,0.74,74,-1.9
CC1CCc2c(C(=O)NCC3CCCO3)csc2C1 (stereo not given),-11,nt,nt,i,0.71,101,-0.1
CCc1ccc2c(c1)C1(SC(NC(C)=O)=NN1C(C)=O)C(=O)N2CC (stereo not given),-7,-40,104,i,0.96,108,nt
CNC(=O)c1sccc1SCc1c(Cl)cccc1Cl,-12,19,95,i,0.97,101,-0.3
O=C(Nc1ccccc1)OCCCc1ccccc1,-5,29,76,i,1,104,nt
CCOc1ccc(/C=N/NC(=S)NC2CC3CCC2C3)cc1 (stereo not given),nt,nt,nt,i,0.96,95,nt
CCOC(=O)N1CCC(NC(=O)CN2C(=O)CSc3nc(C)cc(C)c32)CC1,-11,nt,nt,nt,nt,105,-0.7
CCCCN(CC)Cc1c(O)ccc2c(-c3ccccc3)cc(=O)oc12,nt,nt,nt,i,0.97,99,nt
Clc1cccc(N/N=C/c2ccncc2)c1,-6,44,181,i,0.8,103,-1.1
COc1ccc(C(C)C)cc1S(=O)(=O)NCc1ccccn1,-6,-3,132,i,0.81,100,-1.5
COc1ccc(C(=O)c2cnc(C(C)C)n2C)cc1,10,7,158,nt,nt,109,-1.8
CC1(c2ccccc2)CC(c2ccccc2)=Nc2ccccc2N1 (stereo not given),nt,nt,nt,i,1.3,92,nt
Cc1cc(C(=O)Nc2cccc(C(=O)O)c2)oc1C,-11,-22,99,i,0.83,122,-1.6
C=CCn1c(=N)c(C(=O)OCC)cc2c(=O)n3cccc(C)c3nc21,6,24,176,i,1,nt,2.4
CCOc1ccccc1NC1c2ccccc2C(=O)N1c1cccnc1 (stereo not given),-13,nt,nt,i,0.99,102,0.1
Cc1nnc2sc(SCC(=O)Nc3cccc(Cl)c3)nn2c1=O,-3,nt,nt,i,0.97,102,nt
CCn1c(C)nc([N+](=O)[O-])c1Sc1ccc(F)cc1,3,31,145,i,0.82,107,-1.4
CC(NC(=O)c1ccncc1)C(c1cccs1)N1CCOCC1 (stereo not given),-6,-31,97,i,1,103,-2.2
CC1CCN(C(=O)Cc2nn(C)c(=O)c3ccccc23)CC1,3,nt,nt,i,0.86,63,-3.1
COc1ccc(/C(C)=C2\SC(=S)N(CCC(=O)O)C2=O)cc1,-2,20,56,i,1.1,104,-0.9
Cc1ccc([N+](=O)[O-])c(C(=O)N/N=C/c2cccs2)c1,nt,nt,nt,i,0.97,101,nt
CCN(CC)C(=O)c1ccc(Cn2cc([N+](=O)[O-])cn2)o1,-8,nt,nt,i,0.99,107,nt
CCOC(=O)C(=CNc1ccc(NC2=NCC(C)S2)cc1)C(=O)OCC (stereo not given),-8,-19,93,i,0.89,106,2.1
CCC(C)OC(=O)C[N+](C)(C)CCOC1CC2CCC1(C)C2(C)C (stereo not given),-1,nt,nt,i,0.86,102,nt
COC(c1ccccc1)c1nnc(CCC(=O)N(C)Cc2cccc(-n3cccn3)c2)o1 (stereo not given),-6,nt,nt,i,0.96,96,nt
Cc1cccc(C)c1N1CCN(S(=O)(=O)c2ccccc2)CC1,-2,-38,63,i,1.1,97,nt
Cc1ccc(NC(=S)N2CCC(O)CC2)c(C)c1,-3,nt,nt,i,0.96,103,nt

Remaining list, next part.
molecule,PKD1 kinase inh,INS promoter inh,INS promoter inh cell count,HSV replic up,HSV replic up primary fold,RGS16-Gao,GALR2 ag
COC(=O)c1c(NC(=O)/C=C/c2ccc3c(c2)OCO3)sc(C)c1C,5,9,69,i,1,116,-0.4
CCC(C)c1ccccc1NC(=O)c1cccnc1 (stereo not given),-5,nt,nt,i,1.1,106,0.1
CCOc1ccc(C(=O)C(C)=O)c(OCC)c1,-4,nt,nt,i,1,118,nt
Fc1ccc(CNCc2cccc(Br)c2)cc1,-6,-17,68,i,1.1,103,-0.1
CN(C)C(=O)N1CCC(C(=O)N2CCCC(C(=O)c3ccc(C(C)(C)C)cc3)C2)CC1 (stereo not given),4,nt,nt,i,0.94,105,nt
COc1ccccc1NCCC#N,-12,39,99,i,1,108,-1.6
Cc1onc(-c2ccccc2Cl)c1C(=O)NCc1nc(-c2ccccc2)no1,-7,-15,74,i,0.88,102,-1.9
CC1=CC(C)(C)NC(=S)N1c1ccc(C)cc1,-4,-38,100,i,0.81,94,-2.3
CCOC(=O)C1(CC2CC2)CCN(Cc2cn(C)c3ccccc23)CC1,-2,-39,141,i,0.84,106,nt
CCOc1ccccc1N1CCN(Cc2ccco2)CC1,-2,-23,105,i,1,103,-0.7
CCOC(=O)c1c(CSc2cccs2)n(C)c2cc(Br)c(O)c(CN(C)C)c12,-5,-39,50,i,0.78,103,nt
Cc1ccc(N2C(=O)c3ccccc3C2=O)cc1,nt,nt,nt,i,0.98,100,nt
CCO[C@@H]1OC(C(=O)NCc2nc3ccccc3[nH]2)=C[C@H](c2csc3ccccc23)[C@H]1CCCO,-4,nt,nt,i,0.67,94,nt
CCOc1ccccc1NC(=O)CSc1nnc2ccc(-c3cccnc3)nn12,8,nt,nt,i,0.89,101,nt
c1ccc2sc(N3CCCN(Cc4nc(-c5cnccn5)no4)CC3)nc2c1,-5,nt,nt,i,0.96,108,nt
CC(=O)Nc1ccc(OCCC[n+]2cccc(C(=O)[O-])c2)cc1,8,nt,nt,i,1.1,98,nt
COc1cccc(-n2c(SCC(=O)N3CCCC3)nc3c([nH]c4ccccc43)c2=O)c1,-5,nt,nt,nt,nt,nt,-1.1
Cc1ccc2cc(CN(Cc3ccco3)S(=O)(=O)c3c(C)ccc4nsnc34)c(=O)[nH]c2c1,5,-67,43,i,0.98,102,-1.1
COc1cccc(N(C(=O)Cn2nnc(-c3cccs3)n2)C(C(=O)NC(C)C)c2ccc(C)o2)c1 (stereo not given),-12,-29,43,i,1.1,99,-1.1
CN(C)c1c(N)c(=O)oc2ccccc12,6,nt,nt,i,1,108,nt
CSc1nc2nc3c(c(=O)n2[nH]1)CN(Cc1ccccc1)CC3,7,-91,51,i,0.99,101,-2.2
CCN(CC)S(=O)(=O)c1ccc(N2CCOCC2)c(NC(=O)Cc2ccccc2F)c1,-6,6,65,i,0.91,107,0.9
Cc1ccc(NS(=O)(=O)c2cccs2)cc1S(=O)(=O)N1CCCCCC1,-4,-33,96,i,0.87,101,nt

Random draw from the library. Share with any hit: about 1.3%.
